miR-21 FLuc = miR-21 reporter, rising signal. AID 2288. Potency, µM (highest dose often 38.3 µM), for the others: at the top dose reporter change, positive = more light. 340,000 tested, under 10 active. HeLa miR-21 FLuc reporter, luciferase, 48 h; active = well fitted rising curve with a large enough effect; inconclusive = small, poorly fitted or top-dose-only effect; inactive = no such curve, though single readings can be large or run the other way;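 also: % of control where 0% means no effect; miR-21 action dims this reporter so a rising signal means less miR-21 action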
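HeLa cells stably expressing CMV-driven firefly luciferase with a downstream miR-21 binding sequence, endogenously expressing miR-21, were treated with titrations (up to about 40uM final) for 48 hours at 37 degree Celsius. Luciferase luminescence was read after lysis.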
Rango-impB inh = Rango-importin beta binding inhibition | Rango CFP/YFP FRET sensor + importin beta, 45 min | Q14974 | hit rate 0.031% among 340,000 | AID 540263 | Potency, µM (top dose mostly 92.2 µM), without a hit: at the top dose inhibition of complex formation; active = rising FRET ratio curve, often small or poorly fitted; inconclusive = mostly compound fluorescence or quenching in the first reads; inactive = flat curves in all reads;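 also: potency is read from the fitted curve at half-maximal effect; 0% = DMSO wells and 100% = buffer wells lacking importin beta; nearly all actives have a fitted effect of over 15% in size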
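FRET biosensor Rango (snurportin 1 IBB between N-terminal EYFP and C-terminal Cerulean), 50 nM in PBS/1 mM DTT/0.02% Tween-20/0.1% BSA, preincubated 5 min RT with compound; 0.125 microM importin beta added, 45 min RT, CFP/YFP FRET ratio read.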
Rango dissoc inh = inhibitors of RanGTP-induced Rango-importin beta complex dissociation. Potency, µM (top dose mostly 46.1 µM), for the others: top-dose activity change, negative = inhibition. O95149+P62826. hit rate 0.071% among 340,000. Biochemical FRET Rango-importin beta, RanGTP-induced dissociation. AID 540253; active means falling FRET ratio curve, often poorly fitted, with flat reads before Ran was added; inconclusive means other falling curves, or compound fluorescence or quenching; inactive means flat or rising ratio curve;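 also: potency is read from the fitted curve at half-maximal effect; % of control where 0% means no effect; nearly all actives have a fitted effect of over 45% in size; -100% = wells without RanGTP and RCC1; the record marks most hits as doubtful in a second field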
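Two FRET readings bracket the reaction: one 5 min after compound meets Rango–importin beta, another 45 min after RanGTP-RCC1 (0.6 uM Ran, 0.2 uM RCC1, 2 mM GTP) is added. Only the second defines inhibition.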
GLA inh pH 4.5 = inhibitors of human alpha-galactosidase A at pH 4.5; activity change, negative = inhibition, % at 105 µM; AID 1467; 230,000 tested, under 10 active; P06280; purified enzyme, 4-MU-alpha-Gal fluorescence, pH 4.5; inconclusive = small, poorly fitted or top-dose-only inhibition, or a rising curve; inactive = flat fitted curve, though single readings scatter; no compound was filed as active;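 also: 0% = full activity with enzyme and -100% = basal without enzyme; dose as in the result columns while the protocol names 77 µM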
Target sequence (P06280 whole entry, looked up): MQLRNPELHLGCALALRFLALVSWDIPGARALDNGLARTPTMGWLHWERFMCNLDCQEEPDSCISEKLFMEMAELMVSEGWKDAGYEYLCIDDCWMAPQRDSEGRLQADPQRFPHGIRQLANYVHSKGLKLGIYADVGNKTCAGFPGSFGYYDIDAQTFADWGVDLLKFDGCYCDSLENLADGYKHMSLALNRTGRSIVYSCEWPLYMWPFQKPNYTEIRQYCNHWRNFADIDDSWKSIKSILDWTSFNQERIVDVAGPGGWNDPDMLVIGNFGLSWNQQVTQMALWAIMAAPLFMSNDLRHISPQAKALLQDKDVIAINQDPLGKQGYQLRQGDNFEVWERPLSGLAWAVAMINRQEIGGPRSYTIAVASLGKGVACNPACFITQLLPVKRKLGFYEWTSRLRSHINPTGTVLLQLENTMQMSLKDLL
Starred values were filed as active, the others as inactive; ? = inconclusive; . = no result given; & = joins results of further samples. An excerpt (hit frequency here may not be typical).

SMILES | miR-21 FLuc | Rango-impB inh | Rango dissoc inh | GLA inh pH 4.5
COc1ccc(NC(=O)CN(C)C(=O)c2cc(-c3ccncc3)nc3ccccc23)cc1 | 11% | ? | 1% | .
Cc1ccc(S(=O)(=O)NCC[C@@]2(C)C3CCC2(C)C(=O)C3)cc1 (some centres not stated) | 7% | 0.1% | 1% | 1
Cc1n[nH]c(=O)c2c(NC(=O)CSc3ccc(Br)cc3)oc(C)c12 | . | -1.8% | -14% | .
Cc1ccc2cc(-c3noc(C4CCCO4)n3)c(=O)[nH]c2c1 (configuration not stated) | -29% | ? | ? | 8
CN=C1SC(CC(=O)Nc2sc3c(c2C#N)CCCC3)C(=O)N1C (configuration not stated) | -2% | 0.0% | -10% | -3
CC1=C(C(=O)OCCCBr)C(c2ccc3c(c2)OCO3)NC(=O)N1 (configuration not stated) | 0% | -0.2% | 1% | .
COC(=O)CC1(CC(N)=O)SCCS1 | . | 0.5% | 20% | .
CC(C)n1nc(C(=O)NNC(=O)c2ccc(OC(F)F)cc2)c2ccccc2c1=O | . | -2.6% | 1% | .
COc1cc(/C=N/NC(=O)c2ccncc2)ccc1OC(C)=O | 3% | -0.2% | 2% | .
N=c1c(C(=O)NC2CCCC2)cc2c(=O)n3ccccc3nc2n1C1CCCCC1 | 0% | ? | ? | .
CCOC(=O)CN(C)C(=O)CCc1nnc(-c2ccc(-c3ccccc3)cc2)o1 | 14% | -0.6% | -9% | .
O=C(COC(=O)CCc1ccc(S(=O)(=O)N2CCOCC2)cc1)NC1CCCCCC1 | -5% | 0.4% | 16% | -3
CN(C)CCOCCOc1ccccc1-c1ccccc1 | 1% | 1.5% | -1% | 9
CC(OC(=O)c1cccc(-n2cnnn2)c1)C(=O)NCc1ccccc1 (configuration not stated) | . | -2.2% | -14% | .
C=CCn1c(N)cc(=O)nc1SCC(=O)N1CCN(c2ccc(F)cc2)CC1 | -2% | -0.2% | -6% | 2
CC(C)CC(c1nnnn1CC1CCCO1)N1CCN(Cc2ccc3c(c2)OCO3)CC1 (configuration not stated) | -2% | -3.2% | -5% | 3
CCn1c(SCC(=O)c2c(N)n(C3CC3)c(=O)[nH]c2=O)nnc1-c1ccoc1C | . | -2.5% | 0% | .
CC(C)(C)c1ccc(C(=O)Nc2ncn[nH]2)cc1 | -59% | 5.9% | 0% | -6
O=C(NNC(=S)NC1CCCCC1)c1cccc(S(=O)(=O)Nc2ccccc2Cl)c1 | -4% | 0.3% | 4% | ?
C/C(CC(=O)Nc1ccc(C)c(Cl)c1)=N\NC(=O)c1ccco1 | -53% | -3.7% | -1% | 6

Single records (already shown). Screens in order: miR-21 FLuc, Rango-impB inh, Rango dissoc inh, GLA inh pH 4.5
Cc1ccc(S(=O)(=O)NCC[C@@]2(C)C3CCC2(C)C(=O)C3)cc1 (some centres not stated) reads 7%, 0.1%, 1%, 1
Cc1n[nH]c(=O)c2c(NC(=O)CSc3ccc(Br)cc3)oc(C)c12 reads ., -1.8%, -14%, .
C=CCn1c(N)cc(=O)nc1SCC(=O)N1CCN(c2ccc(F)cc2)CC1 reads -2%, -0.2%, -6%, 2
COC(=O)CC1(CC(N)=O)SCCS1 reads ., 0.5%, 20%, .
C/C(CC(=O)Nc1ccc(C)c(Cl)c1)=N\NC(=O)c1ccco1 reads -53%, -3.7%, -1%, 6

Next section:
SMILES | miR-21 FLuc | Rango-impB inh | Rango dissoc inh | GLA inh pH 4.5
O=[N+]([O-])c1cccc(-c2ccc(/C=N/NC(=S)Nc3cccc(F)c3)o2)c1 | 17% | 0.1% | -8% | -10
COC(=O)c1[nH]c2ccc(F)cc2c1NC(=O)CCN1CCN(C(=O)c2ccco2)CC1 | -15% | . | . | 10
CCCCCCN(C(=O)CCCCCN1C(=O)NC(c2ccc([N+](=O)[O-])cc2)C(C(=O)OCc2ccccc2)=C1C)C(C(=O)NCCCC)c1ccc(OCC(=O)OC)c(C(=O)OC)c1 (configuration not stated) | -4% | . | . | -4&-1
Cc1sc2ncn(CC(=O)NCc3ccco3)c(=O)c2c1-c1ccc(F)cc1 | -9% | 3.7% | 6% | 5
Cc1ccc(-c2c(C(=O)N(C)Cc3ccccc3)oc(=O)c3ccccc23)cc1 | ? | 6.1% | -9% | 3
O=C1c2cccc3cccc(c23)C(=O)N1CCN1CCN(C(=S)Nc2ccc(F)cc2)CC1 | -8% | . | . | 3
COc1cc(/C=C2\C(=O)N(c3ccc(S(N)(=O)=O)cc3)N=C2C)ccc1OC(=O)c1ccco1 | 0% | -0.1% | 1% | -7
COC(=O)CSc1ccc(S(=O)(=O)N2CCC(C)CC2)cc1[N+](=O)[O-] | -5% | 0.7% | -13% | -4
COc1ccccc1P(=O)(c1ccccc1)c1ccccc1 | -6% | -5.5% | -8% | .
CC1(C(=O)Nc2cccc3ccccc23)CC1(Br)Br (configuration not stated) | -2% | -5.0% | 7% | 5
CCCN1CNC(=S)N(c2ccccc2OC)C1 | 1% | 0.3% | 1% | 7
CCC(=O)N(C)CCc1cc2c(c(OC)c1/C=N/NC(=O)c1ccc(Br)cc1)OCO2 | -1% | -0.5% | -15% | -4
NC(=O)CC(NC(=O)c1ccc(Cl)cc1)C(=O)NCCc1ccc(S(N)(=O)=O)cc1 (configuration not stated) | 1% | 0.7% | 8% | .
Cc1nnc(NC(=O)CCS(=O)(=O)Cc2ccccc2)s1 | 1% | 2.3% | 7% | .
O=C(Cn1ccc(=O)[nH]c1=O)Nc1ccc(O)c([N+](=O)[O-])c1 | . | -0.3% | 2% | .
CN1CCN(CC(=O)Nc2ccc(OC(F)(F)F)cc2)CC1 | 3% | -1.2% | 5% | .
CC1CN(C(=O)c2ccc(CNS(=O)(=O)c3cccc(C(F)(F)F)c3)cc2)CC(C)O1 (configuration not stated) | 0% | -4.4% | 2% | 3
CC(=O)Nc1ccc(NC(=O)CCC(=O)OCC(=O)c2cccc([N+](=O)[O-])c2)cc1 | 1% | -3.8% | ? | 9
O=C(O)CCN1C(=O)c2ccc(NC(=O)COc3ccccc3)cc2C1=O | 1% | 0.4% | -1% | .
CN(c1ccccc1)S(=O)(=O)c1cc(C(=O)N2CCN(c3ncccn3)CC2)ccc1Cl | . | -3.3% | -1% | .
CC(C)(C)C(=O)COC(=O)c1cc(-c2cccnc2)nc2ccccc12 | 0% | -1.8% | -8% | -2
O=C1c2ccccc2C(=O)C1c1ccc(O)cc1 | -8% | ? | ? | -2
COc1ccccc1C(=O)Nc1ccc2ccccc2c1 | . | 0.8% | 4% | .
CC(=O)c1ccc(NC(=S)NNC(=O)NC2CCCCC2)cc1 | -29% | -3.4% | 26% | -9
Cc1ccc(-n2nc3c(=O)n(CCCC(=O)NCc4ccccc4Cl)nc(C)c3c2C)cc1 | -2% | -0.9% | 1% | .
O=C(OCCN1CCOCC1)c1ccc(OCCN2CCOCC2)cc1 | -8% | 4.9% | 16% | 1
NS(=O)(=O)c1ccc(NC2=CC(=O)C(=O)c3ccccc32)cc1 | 1% | 1.7% | 5% | .
COc1ccc(/C=N/n2c(=O)[nH]c3c([nH]c4ccc(F)cc43)c2=O)cc1CN1CCCCC1 | -8% | 2.5% | -9% | 13
CC(=O)Nc1ccc(OC(=O)C(CCS(C)(=O)=O)N2C(=O)c3ccccc3C2=O)cc1 (configuration not stated) | -2% | ? | -13% | 5
CC1(C)C(c2cccs2)=[N+]([O-])C2(CCCCC/C2=N\O)N1O (configuration not stated) | -5% | 0.5% | 0% | -4
Cc1cc(O)c(C(C)C)cc1NC(=O)c1ccccc1Cl | -17% | ? | -20% | 0
Cc1ccnc(NC(=O)c2cnc(Cl)c(Cl)c2)c1 | -27% | -0.3% | -6% | .
CC(C(=O)Nc1ccccc1C(=O)O)n1c(C(F)(F)F)nc2ccccc21 (configuration not stated) | -3% | -3.1% | 9% | -1
CCOc1ccc(S(=O)(=O)NCCC(=O)OCC(=O)c2ccc[nH]2)cc1 | 0% | -2.4% | 0% | -7
O=C(c1ccccc1Cl)N1CCC(O)(c2cccnc2)CC1 | -2% | -0.1% | 0% | 6
C=C(C)C(=O)Nc1cccc(C2=NOC3(C2)C[C@@H](C(N)=O)N(C(=O)C(=C)C)C3)c1 (some centres not stated) | -1% | -6.6% | 0% | -10
CCCN1C(=O)c2ccccc2NC1c1ccc(O)c(OCC)c1 (configuration not stated) | -5% | 0.3% | 0% | .
Cc1cc(C)c(N=C2CCCN2Cc2ccccc2)c(C#N)c1 | -3% | 0.7% | -8% | 0
O=C(N/N=C/c1ccc(O)cc1)c1cc(-c2ccc3c(c2)OCO3)n[nH]1 | -1% | 0.5% | -5% | -5
CCOC(=O)CSc1nc2cc(OC)ccc2cc1C#N | -45% | ? | ? | -3

Limited to Rango-impB inh, for 2 of the compounds above:
Compound,Rango-impB inh
CC(C)(C)C(=O)COC(=O)c1cc(-c2cccnc2)nc2ccccc12,-1.8%
NS(=O)(=O)c1ccc(NC2=CC(=O)C(=O)c3ccccc32)cc1,1.7%

Next structures:
SMILES | miR-21 FLuc | Rango-impB inh | Rango dissoc inh | GLA inh pH 4.5
CC(C)N(c1nnc(N)s1)C(C)C | -15% | ? | -4% | 0
COc1ccc(NC(=O)NNC(=O)c2ccccc2-n2cccc2)cc1OC | 1% | -4.5% | -14% | 4
O=C(COC(=O)c1ccc2ccccc2c1)NCCCc1ccccc1 | -3% | -2.3% | -8% | -12
Cc1cccc(NC(=O)CCc2ccccc2)c1C | -18% | -0.3% | -7% | .
CN1CCN(C2Cc3cc(F)ccc3Sc3ccc(Cl)cc32)CC1 (configuration not stated) | . | -2.6% | 12% | .
O=S(=O)(c1ccccc1)N1CCC(O)(CSc2ccc(Cl)cc2)CC1 | 19% | -0.6% | -11% | -2
O=C1OC[C@H]2CCCN2C(=O)[C@@H](CC(=O)N(CCO)Cc2ccccc2)C/C=C\C[C@H]1Cc1ccc(F)cc1 | . | 1.0% | -2% | .
O=C(CSCc1ccccc1)N1CCN(S(=O)(=O)c2ccc(F)cc2)CC1 | -1% | 3.4% | -16% | .
CC1(c2nnc(-c3ccncc3)o2)CC(c2cccnc2)=NO1 (configuration not stated) | . | 4.6% | 8% | .
CCOc1ccccc1NC(=O)CSc1nc(N)c(C#N)cc1C#N | -24% | ? | 21% | -8
Cc1cc(C)c(C)c(S(=O)(=O)Nc2cccc(S(=O)(=O)Nc3ccccc3C(=O)O)c2)c1C | . | 2.1% | -13% | .
CCC(=O)Nc1ccc(NC(=O)c2ccc3ccccc3c2)cc1 | -14% | -5.1% | -9% | .
OC(CNCc1ccccc1)(c1ccc(F)cc1)c1ccc(F)cc1 | 12% | ? | -9% | -8
C#CCOCCOCCOCCNc1nc(N2CCN(C(=O)CCCCCCCCCCNC(=O)Cn3cc(C[C@@H](C)O)nn3)CC2)nc(N2CCN(C(=O)CCCCCCCCCCNC(=O)Cn3cc(C[C@@H](C)O)nn3)CC2)n1 | . | 4.1% | -2% | .
N#CC(c1nc2ccccc2nc1N1CCCCC1)S(=O)(=O)c1ccc(Cl)cc1 (configuration not stated) | -5% | . | . | 1
CCN(CC)CCOC(=O)c1ccc(NC(=O)CCCN2C(=O)S/C(=C/c3ccc(OC)cc3)C2=S)cc1 | ? | -1.4% | -6% | .
COCCNC(=S)N1CCN(S(C)(=O)=O)CC1 | 0% | -2.3% | -3% | 2
CCN(CC)CCNC(=O)COc1ccc(Cl)cc1Cl | -1% | 3.2% | -9% | 0
Fc1ccc(-n2c(Cc3ccccc3)nnc2SCc2nc(-c3cccs3)no2)cc1 | 13% | -0.4% | 14% | -9
C=CCn1c(C(CCCC)CC(C)O)n[nH]c1=S (configuration not stated) | -10% | -3.0% | -9% | 3
Cn1/c(=N\NC(=O)c2ccccc2Cl)sc2ccccc21 | -59% | 0.3% | 10% | 6
Cc1ccc(-n2nnnc2SCC(=O)NC2CCCc3ccccc32)c(C)c1 (configuration not stated) | -1% | 8.4% | -7% | -10
C/C(=N\NC(=O)CN1CCN(Cc2ccccc2)CC1)c1ccncc1 | 0% | 1.7% | -5% | -6
COc1ccc(N/C(N)=N/c2nc(C)c(Cc3ccccc3)c(=O)[nH]2)cc1 | 2% | 4.0% | 8% | .

Screening data (PubChem BioAssay)
